HCMV UL50-53 inh: inhibitors of HCMV UL50-UL53 nuclear egress complex interaction | HTRF UL50-UL53 interaction, normalized percent inhibition | inhibition, % (no concentration beside the values) | actives 0.15% (n = 190,000);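 active = both replicates at 50% or more, plus weaker picks with an unusually low signal ratio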;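 note: stock transfer was 100 nL into about 20 µL; 0% = negative control wells and 100% = wells with untagged competitor protein; inactives centre near -12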
GIV Gai3 FP: GIV-Galpha-i interaction inhibition; actives 0.42% (n = 210,000); Galpha-i3/FITC-GIV peptide fluorescence polarization, 90 min; stronger effect = lower value; scaled: aluminum fluoride 0%, vehicle 100%; percent of control (FP), % (no concentration beside the values); P08753;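 active = replicate mean at 85% of control or lower, very high polarization wells dropped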;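 note: wells of about 15 µL received 100 nL stock; the first replicate is given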
Target sequence (P08753 whole entry, looked up): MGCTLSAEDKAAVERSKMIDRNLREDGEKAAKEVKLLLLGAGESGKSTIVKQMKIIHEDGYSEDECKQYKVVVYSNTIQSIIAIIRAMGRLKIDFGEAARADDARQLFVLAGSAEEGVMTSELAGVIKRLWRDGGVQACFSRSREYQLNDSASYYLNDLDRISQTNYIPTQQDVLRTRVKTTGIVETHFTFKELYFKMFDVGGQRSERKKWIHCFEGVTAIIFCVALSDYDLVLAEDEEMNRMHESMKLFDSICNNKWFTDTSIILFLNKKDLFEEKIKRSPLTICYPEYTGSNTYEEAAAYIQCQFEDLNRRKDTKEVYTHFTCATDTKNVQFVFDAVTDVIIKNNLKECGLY
Sa growth inh: inhibitors of Staphylococcus aureus growth at 42 °C | S. aureus RN4220 growth, OD600, 20 h; stronger effect = lower value | relative growth, % (test concentration not listed) | actives 0.53% (n = 170,000);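 active = growth at 42 °C up to 50% and 20 or more points under that at 30 °C, or under 10% at both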;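 note: 300 nL library stock went into each well; scaled to the means of positive and negative controls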
Sa growth inh second temp: also measured in Sa growth inh; calls as there; relative growth, %; measured here: growth at 30 °C;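 optical density after 20 h as mean of two plates; 100% = untreated growth and lower means inhibition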
Starred values were filed as active, the others as inactive; nt = no result given; & = joins results of further samples.

Value order – HCMV UL50-53 inh	GIV Gai3 FP	Sa growth inh	Sa growth inh second temp
1	CC(C)(C)C1CCc2c(sc3nc(CCC(=O)N4CCN(c5ccccn5)CC4)[nH]c(=O)c23)C1 (stereo not given)
 : -3	95	nt	nt
2	CCC(CC)C(=O)Nc1nnc(S(=O)(=O)N2CCc3ccccc32)s1
 : -23	100	103	92
3	O=C(Cc1ccc(Br)cc1)Nc1nccs1
 : -16	nt	96	74
4	CC(C)C1NC(=O)c2c(sc3c2CCCC3)N1 (stereo not given)
 : -20	106	110	62
5	Cc1ccc2cc(C(=O)O)c(C)nc2c1
 : -44	nt	112	89
6	CCCS(=O)(=O)c1ncc(Cl)c(C(=O)Nc2ccc(S(N)(=O)=O)cc2)n1
 : -74	97	nt	nt
7	CCN(c1ncnc2c1cnn2-c1cccc(Cl)c1)C1CCCCC1
 : 2	100&99	104&90	91&89
8	CC1=C(C(=O)OCC(C)C)C(c2ccc(OCc3ccccc3)cc2)N2C(=O)CCSC2=N1 (stereo not given)
 : -11	104	93	97
9	CCN(CC)S(=O)(=O)c1cccc(C2=N/C(=C\c3c(C)nn(-c4ccccc4)c3N3CCCC3)C(=O)O2)c1
 : -3	nt	86	90
10	COc1ccc(CCn2c(=S)[nH]c3cc(C(=O)N4CCOCC4)ccc3c2=O)cc1OC
 : -25	101	93	88
11	O=C(Nc1ccc(N=Cc2ccco2)cc1)c1ccccc1O
 : -7	113	83	89
12	CCOC(=O)C1=C(C)NC(C)=C(C(=O)OCC)C1
 : -2	105	91	79
13	O=S(=O)(NCCn1c(-c2ccncc2)nc2cccnc21)c1cccc(Cl)c1
 : -25	106	nt	nt
14	S=c1nc(NC2CCCCC2)cn[nH]1
 : -7	102	89	90
15	COc1ccc(C(=O)NCC(N)=O)cc1
 : 5	110	109	91

A draw from above in order of length of the SMILES, falling:
Value order – HCMV UL50-53 inh	GIV Gai3 FP	Sa growth inh	Sa growth inh second temp
10	COc1ccc(CCn2c(=S)[nH]c3cc(C(=O)N4CCOCC4)ccc3c2=O)cc1OC
 : -25	101	93	88
2	CCC(CC)C(=O)Nc1nnc(S(=O)(=O)N2CCc3ccccc32)s1
 : -23	100	103	92
4	CC(C)C1NC(=O)c2c(sc3c2CCCC3)N1 (stereo not given)
 : -20	106	110	62
15	COc1ccc(C(=O)NCC(N)=O)cc1
 : 5	110	109	91

(continued)
Value order – HCMV UL50-53 inh	GIV Gai3 FP	Sa growth inh	Sa growth inh second temp
16	CSc1ccccc1NC(=O)C(C)OC(=O)c1nn(-c2ccccc2)nc1C (stereo not given)
 : -18	nt	89	96
17	COC(=O)c1c(C)sc(-c2c(-c3cc4ccccc4o3)[nH]c3[nH]c(=O)[nH]c(=O)c23)c1O
 : -46	194	nt	nt
18	CCc1ccc(NC(=O)CN2C=NS(=O)(=O)c3ccccc32)cc1
 : -4	104	112	104
19	CCN(Cc1ccccc1)S(=O)(=O)c1ccc2[nH]c(=O)ccc2c1
 : nt	99	98	91
20	CCC(C)Nc1nc(-c2cc(OC)c(OC)c(OC)c2)nc2ccccc12 (stereo not given)
 : -6	100	nt	nt
21	C#CC(O)(c1ccccc1)c1ccccc1
 : -11	107	102	88
22	COc1ccc(NCc2cccn2-c2nnc(N3CCC(C)CC3)s2)c(OC)c1
 : nt	103	93	94
23	N=C1c2ccccc2CN1NC(=O)CSc1nc2ccccc2[nH]1
 : -25	nt	100	97
24	O=C(CSc1nc2c(c(C(F)(F)F)n1)CCc1ccccc1-2)NCc1ccco1
 : 18	108	100	100
25	COc1ccccc1CNC(=O)c1cc(Sc2cccc(Cl)c2)nc2ccccc12
 : nt	105	126	101
26	CCOC(=O)c1cccc(NC(=O)CCc2c(C)nc3cc(-c4ccc(Cl)cc4)nn3c2C)c1
 : 2	104	94	91
27	CCc1ccc(NC(=O)CSc2nnc3[nH]c(=O)cc(-c4ccccc4)n23)cc1
 : nt	102	100	95
28	O=C(NCCCN1CCCC1=O)C1CCCN(C(=O)N2CCOc3ccccc32)C1 (stereo not given)
 : -30	102	98	80
29	CCCC(=O)N(c1ccc(C)c(Cl)c1)C1C=CS(=O)(=O)C1 (stereo not given)
 : -6	nt	76	87
30	COC(=O)c1[nH]c2ccccc2c1S(=O)c1ccccc1 (stereo not given)
 : -16	104	94	76

Some of these compounds in order of the GIV Gai3 FP value, highest first.
No. | Molecule | GIV Gai3 FP
17 | COC(=O)c1c(C)sc(-c2c(-c3cc4ccccc4o3)[nH]c3[nH]c(=O)[nH]c(=O)c23)c1O | 194
24 | O=C(CSc1nc2c(c(C(F)(F)F)n1)CCc1ccccc1-2)NCc1ccco1 | 108
25 | COc1ccccc1CNC(=O)c1cc(Sc2cccc(Cl)c2)nc2ccccc12 | 105
30 | COC(=O)c1[nH]c2ccccc2c1S(=O)c1ccccc1 (stereo not given) | 104
22 | COc1ccc(NCc2cccn2-c2nnc(N3CCC(C)CC3)s2)c(OC)c1 | 103
27 | CCc1ccc(NC(=O)CSc2nnc3[nH]c(=O)cc(-c4ccccc4)n23)cc1 | 102
19 | CCN(Cc1ccccc1)S(=O)(=O)c1ccc2[nH]c(=O)ccc2c1 | 99

Going on with the list.
Value order – HCMV UL50-53 inh	GIV Gai3 FP	Sa growth inh	Sa growth inh second temp
31	CCCCNC(=O)CN1CCN(C(=O)c2ccc(N3CCNCC3)c(NS(C)(=O)=O)c2)CC1
 : -15	103	nt	nt
32	COc1ccc(CC2CC(=O)N(c3ccc(C)cc3)C2=O)cc1 (stereo not given)
 : -7	110	100	91
33	COc1ccc(NC(=O)NC2c3ccccc3Oc3ccccc32)cc1OC
 : -8	nt	85	87
34	Nc1ncnc2c1ncn2C1CCCO1 (stereo not given)
 : 0&0&-2	105	nt	nt
35	COC(=O)c1ccc(-n2c(/C=C/c3cc(OC)c(OC)c(OC)c3)nc3cc(Cl)ccc3c2=O)cc1
 : nt	99	121	83
36	CC(C)(C)C(=O)C(Cc1ccc(C#N)cc1)C(=O)C(C)(C)C
 : -18	nt	85	88
37	CC(C)C(C)NC(=O)COc1ccccc1C(N)=O (stereo not given)
 : -26	nt	76	88
38	CC(C)CCOc1ccc(/C=N/n2cnnc2)cc1
 : -25	nt	85	77
39	Cc1ccc(-c2ccc(CCC(=O)O)n2-c2ccccc2C(F)(F)F)cc1
 : -8	nt	110	86
40	Cc1cccc(C(=O)Nc2nnc(-c3cc4ccccc4o3)o2)c1
 : -1	108	nt	nt
41	Cc1c(C)n(-c2ccccc2)c2ncn(CCC(=O)NCCC3=CCCCC3)c(=O)c12
 : -22	102	nt	nt
42	CC(C)Oc1ccc(CNC2CCOC(C)(C)C2)cc1 (stereo not given)
 : -4	nt	108	83
43	O=C(CCSc1cccs1)Nc1ccc(Cl)cc1
 : 6	104	72	74
44	O=C1CC(c2ccc3c(c2)OCO3)c2c(-c3ccc(Cl)cc3)nn(-c3ccccc3)c2N1 (stereo not given)
 : 2	104	nt	nt
45	COc1ccc(NC(=O)C2CCCN(S(=O)(=O)c3ccc(Br)s3)C2)cc1Cl (stereo not given)
 : nt	101	114	81

Other results.
Value order – HCMV UL50-53 inh	GIV Gai3 FP	Sa growth inh	Sa growth inh second temp
46	CCOc1cccc(CC(=O)Nc2ccc3nc(N4CCCCC4)cc(C)c3c2)c1OCC
 : nt	102	107	96
47	Cc1ncc(-c2ccc(C)c(S(=O)(=O)Nc3ccc(S(N)(=O)=O)cc3)c2)o1
 : 6	106	nt	nt
48	O=C1CCCCC1Sc1nnc(Nc2ccccc2)s1 (stereo not given)
 : 2	nt	106	97
49	O=CNc1ncc(-c2nc3ccccc3[nH]2)s1
 : -11	nt	116	86
50	COc1ccc(-n2c(=O)c3c(c4cc(OC)ccc4n3C)n(CCC(C)C)c2=O)cc1
 : nt	105	92	114
51	O=C(c1ccc2ncccc2c1)N1CCOCC1
 : -6	92	92	85
52	CCCCNC(=O)Cn1c(=O)cc(C)c2c(C)nn(-c3cccc(F)c3)c21
 : -37	106	89	82
53	Clc1ccc2nnn(OCCOc3ccc(Br)cc3)c2c1
 : -11	nt	92	84
54	CC(=O)Nc1ccccc1C(=O)OCc1nnc(-c2ccccc2)o1
 : -28	103	96	96
55	CCN(CC)CCNc1nc2ccc(Cl)cc2[nH]1
 : -2	nt	96	82
56	Nc1nc(N2CCCC2)ncc1S(=O)(=O)c1ccc(Cl)cc1
 : -7	100	109	79
57	Cc1ccc2nc(NN)nc(-c3ccccc3)c2c1
 : -55	101	44	32
58	O=C(NCCc1ccccc1Cl)c1ccc2c(=O)n(-c3ccccc3)c(=O)[nH]c2c1
 : -29	106	99	90
59	CC1(C)CC(=O)C2(CNC3=C(C2)C(=O)CC(C)(C)C3)C(=O)C1
 : -17	104	96	94
60	CN1CCN(NC(=O)CN2C(=O)S/C(=C/c3ccc(Cl)cc3)C2=O)CC1
 : nt	98	99	103

Single values from the list:
entry 57 in Sa growth inh → 44
entry 58 in Sa growth inh → 99
entry 60 in Sa growth inh second temp → 103

Compounds from the list above containing a tert-butyl group:
Value order – HCMV UL50-53 inh	GIV Gai3 FP	Sa growth inh	Sa growth inh second temp
1	CC(C)(C)C1CCc2c(sc3nc(CCC(=O)N4CCN(c5ccccn5)CC4)[nH]c(=O)c23)C1 (stereo not given)
 : -3	95	nt	nt
36	CC(C)(C)C(=O)C(Cc1ccc(C#N)cc1)C(=O)C(C)(C)C
 : -18	nt	85	88

Remaining list, next part
Value order – HCMV UL50-53 inh	GIV Gai3 FP	Sa growth inh	Sa growth inh second temp
61	CC1CC1C(=O)OCC(=O)c1ccc(Br)cc1 (stereo not given)
 : 10	nt	75	89
62	CCOc1ccc(N2C(=O)/C(=C/c3ccc(OCC(=O)OC)c(OC)c3)C(=O)NC2=S)cc1
 : -29	104	nt	nt
63	CCC(=O)N1CCc2cc(S(=O)(=O)CCC(=O)Nc3ccc(Cl)c(C(F)(F)F)c3)ccc21
 : -22	103	102	88
64	CCOc1cccc(CO)c1OCc1ccccc1
 : -11	nt	94	91
65	CCOc1ccc(NC(=O)Cn2ccn3nc(-c4ccc(OC)c(OC)c4)cc3c2=O)cc1
 : nt	109	106	95
66	COc1cc(CO)cc(-c2cc(CO)cc(OC)c2OC)c1OC
 : -3	101	83	91
67	COc1ccc(C2=NOC(C(=O)N(C)c3ccccc3)C2)cc1OC (stereo not given)
 : -22	101	90	89
68	CC12CCC(C/C1=N\N=C1/NC(=O)C(CC(=O)NC(N)=O)S1)C2(C)C (stereo not given)
 : -24	102	91	81
69	CSc1ccc(S(=O)(=O)N2CCC(C(=O)N(C)C)CC2)cc1
 : nt	106	87	79
70	CC1CS(=O)(=O)CCO1 (stereo not given)
 : -35	106	93	88
71	Cc1c2c(=O)n(-c3ccccc3)[nH]c2cc(=O)n1CCc1ccccc1
 : 0	105	97	87
72	c1nc(N2CCC3(CC2)OCCO3)c2[nH]cnc2n1
 : -15	112	101	103
73	Cc1cc(C)n(CC(C)O)c(=O)c1C#N (stereo not given)
 : 2	108	105	79
74	O=C(CCNS(=O)(=O)c1ccc2c(c1)CCN2C(=O)C1CC1)N1CCN(c2ccc(F)cc2)CC1
 : nt	108	94	83
75	CCc1ccc(-n2c(Cc3ccccc3)nnc2SCc2nc(-c3cccs3)no2)cc1
 : 8	103	85	79
76	CCn1c(Cn2cccn2)nc2cc(NC(=O)c3ccccc3OC)ccc21
 : 6	106	nt	nt
77	C=CCNC(=O)c1ccccc1NC(=O)CN1C(=O)c2cccc3cccc1c23
 : 3	93	108	93

High-throughput results (PubChem BioAssay)
